# High-throughput results (PubChem BioAssay)
# BRCT inh red = BRCT-phosphoprotein interaction inhibition (red fluorophore); P38398; BRCT-phosphopeptide binding, red fluorescence polarization; Potency, µM (doses to about 76.9 µM), for the others: top-dose activity change, negative = inhibition, actives largely listed as inhibitors; 75,000 tested, 0.03% active; AID 892; note: % is set by controls: 0 for no effect and ±100 for the full control effect
#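 Rhodamine-labelled pBACH1 10-mer (100 nM) bound to BRCT domain (100 nM) at pH 7.3; compounds incubated 12 min room temperature, polarization read. Free peptide defines full inhibition; unlabelled decapeptide titrated as control.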
# 15-hLO inh = 15-hLO (ALOX15) enzyme inhibition; P16050; purified 15hLO-1, xylenol orange hydroperoxide absorbance; Potency, µM (top dose mostly 57.1 µM), for inactives: at the top dose activity change, negative = inhibition, hits mostly inhibitors; 74,000 tested, 1.4% active; AID 887; note: potency is the fitted concentration of half-maximal effect; % is set by controls: 0 for no effect and ±100 for the full control effect; nearly all actives have a fitted effect of over 55% in size
# Target sequence (P16050 whole entry, looked up): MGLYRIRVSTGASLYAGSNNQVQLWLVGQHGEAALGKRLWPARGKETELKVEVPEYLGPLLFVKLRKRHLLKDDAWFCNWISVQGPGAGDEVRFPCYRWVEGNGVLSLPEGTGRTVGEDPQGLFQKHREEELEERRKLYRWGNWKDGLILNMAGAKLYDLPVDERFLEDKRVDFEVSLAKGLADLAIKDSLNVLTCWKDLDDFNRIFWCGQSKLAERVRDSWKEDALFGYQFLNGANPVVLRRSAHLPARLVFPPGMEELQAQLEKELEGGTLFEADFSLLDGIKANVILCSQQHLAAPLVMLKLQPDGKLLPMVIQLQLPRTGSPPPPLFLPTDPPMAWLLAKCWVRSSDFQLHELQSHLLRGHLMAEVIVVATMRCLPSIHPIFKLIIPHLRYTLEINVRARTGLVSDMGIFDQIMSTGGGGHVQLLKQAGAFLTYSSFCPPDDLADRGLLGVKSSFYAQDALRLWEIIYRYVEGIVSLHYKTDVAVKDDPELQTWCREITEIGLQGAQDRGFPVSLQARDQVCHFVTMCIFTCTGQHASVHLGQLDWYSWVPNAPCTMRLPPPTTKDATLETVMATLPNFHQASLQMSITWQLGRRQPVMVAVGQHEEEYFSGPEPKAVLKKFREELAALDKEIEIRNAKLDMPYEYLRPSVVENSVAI
#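 Purified human 15hLO-1 (40 nM) in 25 mM Hepes pH 7.5, 0.01% Triton X-100, preincubated 15 min RT with compound, then 50 uM arachidonic acid for 6 min. Hydroperoxide read by ferrous/xylenol orange, 30 min; 573/405 nm absorbance ratio gave progress.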
# BRCT PPI green = BRCA1 BRCT-phosphoprotein interaction inhibition; P38398; Potency, µM (highest dose often 76.9 µM), inactives show top-dose activity change, negative = inhibition, usual class: inhibitors; BRCA1 BRCT-phosphopeptide binding, green fluorescence polarization; 75,000 tested, 0.05% active; AID 875;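 note: potency is the fitted concentration of half-maximal effect; plate controls were peptide without protein for full effect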
#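 Compounds were incubated for 12 min at room temperature with a complex of 100 nM fluorescein-tagged pBACH1 decapeptide and 250 nM His-tagged BRCT protein. Buffer was phosphate pH 7.3 with EDTA, DTT and Tween 20. Disruption of binding lowers the polarization signal.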
# Rhodamine autofl = compound autofluorescence in rhodamine spectral region | Rhodamine-region fluorescence, 547/598 nm, Tris buffer; stronger effect = higher value | max dye-equivalent concentration, M | 59,000 tested, 0.05% active; in the data active = max dye-equivalent concentration above about 11 nM; inconclusive = between about 1.1 nM and that limit
#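 A six-point rhodamine series on each plate calibrates the signal. Compounds sit in 100 mM Tris (pH 8.0) for 15 min at ambient temperature before imaging through 547 nm/598 nm filters.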
# USP2a inh = USP2a (human) protease inhibition; O75604; USP2a enzymatic assay, qHTS inhibition; Potency, µM (series often up to 38.3 µM), for the others: top-dose activity change, negative = inhibition, most hits filed as inhibitors; 60,000 tested, 0.1% active; AID 927;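 note: potency is the fitted concentration of half-maximal effect; nearly all actives have a fitted effect of over 60% in size; plate controls were DMSO for no effect and NEM full inhibition control for full effect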
#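 Coupled readout: USP2-cleaved Ub-PLA2 (20nM final) turns over NBD C6-HPC (20uM final), Ex 460nm/Em 535nm after 2.5 h, time-zero read flagging artifacts. Enzyme (20nM final, pH 8.0 Tris) given 30 min RT with compound first; NEM defines full inhibition.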
# HEK293 cAMP ctrl = parental HEK293 cAMP activation (counter-screen); Potency, µM (highest dose often 57.1 µM), for the others: at the top dose activation, actives largely listed as activators; parental HEK293 CNG cAMP sensor, membrane potential fluorescence; 73,000 tested, 2.5% active; note: potency is the fitted concentration of half-maximal effect; % of control where 0% means no effect; nearly all actives have a fitted effect of over 55% in size
#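 Parental HEK 293 cells stably expressing a cAMP-gated CNG channel were loaded with membrane potential dye containing 100 uM RO 20-1724 for 60 min. Compound added for 30 min; depolarization read as fluorescence intensity at 590 nm.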
# DNA Pol III inh = DNA polymerase III holoenzyme inhibition; 71,000 tested, 0.25% active; Potency, µM (titrated, usually from 57.1 µM), inactives show at the top dose activity change, negative = inhibition; reconstituted DNA polymerase III holoenzyme replication, biochemical; note: potency is the fitted concentration of half-maximal effect; % is set by controls: 0 for no effect and ±100 for the full control effect
#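 Reconstituted *E. coli* holoenzyme (0.35 nM Pol III, 1 nM beta, 154 nM SSB, 2 nM primase) was preincubated with compound for 15 min at RT. Synthesis on 1.4 nM ssM13Gori ran 35 min, then was stopped with PicoGreen/EDTA and read as dsDNA fluorescence.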
# Active calls of the source: *; i = inactive; ? = inconclusive; . = no result given; & = joins results of further samples; ! = not active in a repeat; [ ] = another dose, or the depositor's remark. Unless noted, calls come from the whole dose curve; as a rule, active = well fitted curve in the direction sought with a large enough effect; inconclusive = small, poorly fitted or top-dose-only effect, or another doubt; inactive = no such curve, though single readings can be large; an effect the other way counts as inactive or inconclusive. This is a subset; the hit share may differ from the screen's.
compound	BRCT inh red	15-hLO inh	BRCT PPI green	Rhodamine autofl	USP2a inh	HEK293 cAMP ctrl	DNA Pol III inh
CCN(CC)CC#CCOC(=O)C(O)(c1ccccc1)C1CCCCC1 (stereo not given)	.	.	.	i	.	.	.
CC1(C)S[C@@H]2[C@@H](NC(=O)[C@@H](N)c3ccccc3)C(=O)N2[C@H]1C(=O)O	.	.	.	i	.	-1%	-5%
CNC1C(O)C(O)C(CO)O[C@H]1OC1C(O[C@@H]2C(O)C(O)[C@@H](N=C(N)N)C(O)C2N=C(N)N)OC(C)[C@]1(O)C=O (stereo not given in full)	-1.9%	26%	-1.0%[3.08 µM]	.	0%	.	.
CCNc1ncc2nc(-c3cccc(C#N)c3)c(=O)n(C)c2n1	-2.0%	-15%	3.6%	i	39%[activator]	7%	-5%
O=C(NCC1CCCCN1)c1cc(OCC(F)(F)F)ccc1OCC(F)(F)F (stereo not given)	.	.	.	i	.	.	.
Cc1c(C)c2c(c(C)c1O)CC[C@@](C)(CCC[C@@H](C)CCC[C@@H](C)CCCC(C)C)O2	-0.5%[34.4 µM]	13%[25.6 µM]	-2.0%[34.4 µM]	i	7.9µM*	-5%[25.6 µM]	-2%[25.6 µM]
Nc1nc2c(ncn2COC(CO)CO)c(=O)[nH]1	0.3%[34.4 µM]	6%[25.6 µM]	-2.1%[34.4 µM]	i	-8%[17.1 µM]	5%[25.6 µM]	-1%[25.6 µM]
CC(=O)Oc1cc(C(C)C)c(OCCN(C)C)cc1C	-1.8%[34.4 µM]	4%[25.6 µM]	1.8%[34.4 µM]	i	5%[17.1 µM]	4%[25.6 µM]	-3%[25.6 µM]
COc1ccc(C(=O)Nc2cccc3c2C(=O)NC3=O)cc1S(=O)(=O)N1CCOCC1	-1.4%	-1%	-1.4%	i	17%	4%	-3%
CC1CCCN(c2oc(-c3cccc4ccccc34)nc2C#N)C1 (stereo not given)	0.3%	-10%	-0.4%	i	4%	19%	-14%
Cc1ccccc1C(=O)OCn1nnc2ccccc2c1=O	-2.3%	-15%	1.7%	.	.	?	-7%
CCCN(CCC)S(=O)(=O)c1ccc(C(=O)O)cc1	2.2%	-14%	3.8%	i	-10%	6%	-2%
CC1(C)S[C@H]2[C@@H](NC(=O)C(N)c3ccccc3)C(=O)N2[C@H]1C(=O)O (stereo not given in full)	-2.0%	26%[25.6 µM]	0.1%	.	.	.	.
CCC1(c2ccccc2)C(=O)NCNC1=O	-3.7%	9%	-2.4%	i	-4%	?	3%
O=C(O)CN(CCN(CC(=O)O)CC(=O)O)CC(=O)O	1.4%	8%	-0.3%[3.08 µM]	.	-1%	.	.
CC(=O)C1=C(C)NC(SCC(=O)c2ccc(Cl)cc2Cl)=C(C#N)C1c1ccco1 (stereo not given)	0.3%	13µM*	2.0%	.	21%	3%	0%
CCNc1ncc2ncc(=O)n(CCc3ccccc3)c2n1	-1.4%	-1%	7.7%	i	6%	?	-2%
Cc1cccc(C)c1OC[C@H](C)N	-2.1%[34.4 µM]	3%[25.6 µM]	-1.1%[34.4 µM]	i	11%[17.1 µM]	-3%[25.6 µM]	-4%[25.6 µM]
COCCOC(=O)C1=C(C)NC(C)=C(C(=O)OC(C)C)[C@@H]1c1cccc([N+](=O)[O-])c1	-3.7%	-5%	-2.3%[3.08 µM]	i	4%	-18%&-1%	-2%&-5%
O=C(O)c1ccccc1O	1.0%	-3%	0.2%[3.08 µM]	.	-9%	.	.
CCN1CCC[C@@H]1CNC(=O)c1cc(S(N)(=O)=O)ccc1OC	-2.0%	7%[25.6 µM]	-3.4%	i	3%	-1%&-1%&5%	-6%&0%&-1%
O=C(NCCc1cn2ccsc2n1)c1cccs1	-0.6%	-19%	-1.2%	.	.	11%	-2%
COc1cccc(Cn2c(=O)cnc3cnc(N(C)C)nc32)c1	-3.5%	-5%	-1.4%	i	68%[activator]	?	-20%
Nc1ccn([C@H]2CS[C@@H](CO)O2)c(=O)n1	0.3%	3%	-2.8%	.	.	2%	0%
CC(=O)O[C@]1(C(C)=O)CC[C@H]2[C@@H]3C=C(C)C4=CC(=O)CC[C@]4(C)[C@H]3CC[C@@]21C	.	.	.	i	.	.	.

compound	BRCT inh red	15-hLO inh	BRCT PPI green	Rhodamine autofl	USP2a inh	HEK293 cAMP ctrl	DNA Pol III inh
CCNc1ncc2nc(-c3ccc(F)cc3)c(=O)n(C)c2n1	1.2%	?	-4.2%	i	72%[activator]	?	-2%
CCOCCCNC(=O)Cc1cc(=O)[nH]c(=O)[nH]1	-1.8%	-27%	2.0%	.	.	?	-8%
O=C1CN(/N=C\c2ccc([N+](=O)[O-])o2)C(=O)N1	-1.0%[34.4 µM]	-1%[25.6 µM]	3.7%[34.4 µM]	i	-5%[17.1 µM]	-1%[25.6 µM]	-3%[25.6 µM]
CN1C2CCC1CC(OC(c1ccccc1)c1ccccc1)C2 (stereo not given)	-0.1%	2%	-0.4%[3.08 µM]	.	-7%	.	.
COc1cccc2c1C(=O)c1c(O)c3c(c(O)c1C2=O)C[C@](O)(C(=O)CO)C[C@@H]3O[C@H]1C[C@H](N)[C@@H](O)[C@H](C)O1	.	.	.	i	.	8%[11.4 µM]	3%[11.4 µM]
COC1/C=C/OC2(C)Oc3c(C)c(O)c4c(O)c(c(/C=N/N5CCN(C)CC5)c(O)c4c3C2=O)NC(=O)/C(C)=C/C=C/C(C)C(O)C(C)C(O)C(C)C(OC(C)=O)C1C (stereo not given)	0.1%	-10%[25.6 µM]	0.0%	.	.	.	.
Cc1ccc(/C(=C/CN2CCCC2)c2ccccn2)cc1	0.1%	-5%[25.6 µM]	1.0%	i	3%[17.1 µM]	25µM*!	-14%
C[C@]12C=CC(=O)C=C1CC[C@H]1[C@@H]3C[C@@H](O)[C@](O)(C(=O)CO)[C@@]3(C)C[C@H](O)[C@@]12F	-1.1%	-11%	-2.9%	i	-2%	.	.
COCCOC(=O)C1=C(C)NC(C)=C(C(=O)OC(C)C)C1c1cccc([N+](=O)[O-])c1 (stereo not given)	.	.	.	i	.	.	.
O=C(O)CCCCC1CCSS1 (stereo not given)	1.9%	-26%[25.6 µM]	-2.4%	.	-13%	?	0%
O=C1CN(/N=C/c2ccc([N+](=O)[O-])o2)C(=O)N1	9.8%	-19%	-1.3%	.	-10%	-12%	-6%
CN(C)CC[C@@H](c1ccc(Cl)cc1)c1ccccn1	0.4%	5%	-2.2%[3.08 µM]	.	-3%	.	.
CC[C@H](C)[C@@H]1O[C@]2(CC[C@@H]1C)C[C@H]1C[C@H](CC=C(C)[C@@H](O[C@@H]3C[C@H](OC)[C@H](O[C@@H]4C[C@H](OC)[C@H](O)[C@H](C)O4)[C@H](C)O3)[C@@H](C)C=CC=C3CO[C@@H]4[C@@H](O)C(C)=C[C@@H](C(=O)O1)[C@]34O)O2	-0.1%[34.4 µM]	2%[25.6 µM]	1.0%[34.4 µM]	i	93%[activator][17.1 µM]	-2%[25.6 µM]	-1%[25.6 µM]
COc1ccc(CNC(=O)c2cc3c(=O)n4ccccc4nc3n(Cc3ccco3)c2=N)cc1	-8.5%	-27%	-3.9%	i	24%	-3%	-17%
COc1ccc(-c2nn3c(-c4ccccc4)nnc3s2)cc1OC	-4.0%	-11%	7.5%	i	44%[activator]	28%	-6%
CCNc1ncc2nc(-c3cn(C)c4ccccc34)c(=O)n(Cc3cccc(OC)c3)c2n1	-1.9%	5%	0.6%	i	189%[activator]	-18%	0%
COc1ccc(Cl)cc1-c1nc(-c2ccc(NC(=O)c3ccncc3)cc2)no1	1.3%	?	-1.9%	i	15%	4%	-7%
CN(Cc1cnc2nc(N)nc(N)c2n1)c1ccc(C(=O)NC(CCC(=O)O)C(=O)O)cc1 (stereo not given)	-2.0%	-2%	-1.2%[3.08 µM]	.	-13%	.	.
CN[C@H]1[C@@H](O[C@@H]2[C@H](O[C@@H]3[C@@H](O)[C@@H](O)[C@@H](N=C(N)N)[C@@H](O)[C@@H]3N=C(N)N)O[C@H](C)[C@@]2(O)C=O)O[C@@H](CO)[C@@H](O)[C@H]1O	1.5%[34.4 µM]	43%[25.6 µM]	0.1%[34.4 µM]	i	13%[17.1 µM]	-3%[25.6 µM]	-6%[25.6 µM]
CC(C)Nc1oc(-c2cccc3ccccc23)nc1C#N	1.8%	4µM*	2.1%	i	-6%	-15%	-2%
CCN(CC)C(=S)SSC(=S)N(CC)CC	0.0%	?	0.4%[3.08 µM]	i	1%	2%[25.6 µM]	-3%[25.6 µM]
CO[C@@H]1C=CO[C@]2(C)Oc3c(C)c(O)c4c(O)c(c(C=NN5CCN(C)CC5)c(O)c4c3C2=O)NC(=O)C(C)=CC=C[C@H](C)[C@H](O)[C@H](C)[C@H](O)[C@H](C)[C@H](OC(C)=O)[C@H]1C	0.2%[34.4 µM]	-4%[25.6 µM]	1.8%[34.4 µM]	i	4%[17.1 µM]	-14%[25.6 µM]	-4%[25.6 µM]

# Entries from the list above with a halogen (6):
compound	BRCT inh red	15-hLO inh	BRCT PPI green	Rhodamine autofl	USP2a inh	HEK293 cAMP ctrl	DNA Pol III inh
O=C(NCC1CCCCN1)c1cc(OCC(F)(F)F)ccc1OCC(F)(F)F (stereo not given)	.	.	.	i	.	.	.
CC(=O)C1=C(C)NC(SCC(=O)c2ccc(Cl)cc2Cl)=C(C#N)C1c1ccco1 (stereo not given)	0.3%	13µM*	2.0%	.	21%	3%	0%
CCNc1ncc2nc(-c3ccc(F)cc3)c(=O)n(C)c2n1	1.2%	?	-4.2%	i	72%[activator]	?	-2%
C[C@]12C=CC(=O)C=C1CC[C@H]1[C@@H]3C[C@@H](O)[C@](O)(C(=O)CO)[C@@]3(C)C[C@H](O)[C@@]12F	-1.1%	-11%	-2.9%	i	-2%	.	.
CN(C)CC[C@@H](c1ccc(Cl)cc1)c1ccccn1	0.4%	5%	-2.2%[3.08 µM]	.	-3%	.	.
COc1ccc(Cl)cc1-c1nc(-c2ccc(NC(=O)c3ccncc3)cc2)no1	1.3%	?	-1.9%	i	15%	4%	-7%
